rRNA inh HTS: reduced GFP signal of wild-type E. coli, primary screen, bacterial rRNA inhibitor project, GFP/RFP fluorescence, OD600, single point; GFP signal change (wild-type ribosome), % (concentration not given with the values); E. coli WT GFP vs humanized-ribosome RFP mutants, 24 h; stronger effect = lower value; DMSO median 0, no signal -100; 350,000 tested, 1.6% active;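 active means significant combined selectivity score with lowered wild-type GFP, culture density cut under 30%, mutant RFP and density less affected; inactive means any of these conditions unmet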; further: one replicate is shown; some compounds called inactive have numbers as strong as hits
ALR inh: inhibitors of human ALR sulfhydryl oxidase, primary screen, biochemical, H2O2 detection, HRP-luminol luminescence, single point; AID 485317, 2010; FAD-linked sulfhydryl oxidase ALR (Homo sapiens), P55789; inhibition, % (concentration not given with the values); purified ALR, DTT oxidation; 290,000 tested, 3.8% active;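 active means mean and each replicate at 75% or more; inconclusive means only one of the two met; inactive means neither met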;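 further: stock transfer was 7.5 nL into about 7.5 µL; 0% = neutral wells and 100% = wells with inactivated enzyme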
Target sequence (P55789 whole entry, looked up): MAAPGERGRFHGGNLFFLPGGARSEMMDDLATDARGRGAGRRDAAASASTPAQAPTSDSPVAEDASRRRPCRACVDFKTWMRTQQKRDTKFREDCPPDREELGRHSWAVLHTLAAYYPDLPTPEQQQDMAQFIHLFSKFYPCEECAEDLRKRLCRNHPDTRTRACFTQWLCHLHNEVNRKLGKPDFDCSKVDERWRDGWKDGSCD
B2AR ag: beta2AR agonists driving receptor internalization, primary screen, cell-based, FAP fluorogen, flow cytometry; Am2.2-beta2AR cells; reference of the scale not given here; response, % (test concentration not listed); 340,000 tested, 0.43% active; AID 504454, 2011;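 active means response above a set limit, near 3 SD of response in nonfluorescent compounds, cut at about 42% in these data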;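 further: stock transfer was 100 nL into about 11 µL; a reference agonist was the positive control; negative values mostly stem from fluorescent compounds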
Target sequence (P07550 whole entry, looked up): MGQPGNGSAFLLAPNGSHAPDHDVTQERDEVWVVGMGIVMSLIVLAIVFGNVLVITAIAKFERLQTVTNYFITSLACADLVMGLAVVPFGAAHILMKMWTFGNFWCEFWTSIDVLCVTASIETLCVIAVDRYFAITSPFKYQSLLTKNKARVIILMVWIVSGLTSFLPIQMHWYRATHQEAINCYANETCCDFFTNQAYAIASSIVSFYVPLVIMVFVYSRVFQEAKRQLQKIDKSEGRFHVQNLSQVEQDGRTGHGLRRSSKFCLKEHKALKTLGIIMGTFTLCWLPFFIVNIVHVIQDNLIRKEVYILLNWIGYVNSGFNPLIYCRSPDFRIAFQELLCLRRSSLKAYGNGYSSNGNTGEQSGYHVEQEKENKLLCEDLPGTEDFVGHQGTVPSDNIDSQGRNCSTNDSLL
Beta cell apopt: inhibitors of cytokine-induced beta cell apoptosis, primary screen, luminescence; protection from apoptosis, % (concentration not given with the values); INS-1E cytokine-induced death, ATP luminescence, 48 h; percent of positive-control rescue, neutral wells zero; AID 435005, 2010; 300,000 tested, 0.8% active;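 active means all replicates at 75% or more, or half of them and the mean; inconclusive means half reach 75% but not the mean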;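 further: 0% = cytokine-treated negative control wells and 100% = positive control rescue; higher means more ATP so stronger rescue from cytokine killing; wells of about 40 µL received 100 nL stock; the first replicate is given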
LANA-H2A inh: blockers of LANA interaction with H2A/H2B – biochemical, FP readout, HTS, primary screen; 320,000 tested, 0.6% active; AID 2629, 2010; inhibition, % (concentration not given with the values); cell-free LANA-H2A/H2B peptide, fluorescence polarization; Protein LANA1 (Human herpesvirus 8 type P (isolate GK18)), Q9QR71; in the data active means inhibition mostly above about 10%, no sharp cut-off; inactive means mostly below about 6.7%;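 further: stock transfer was 7.5 nL into about 10 µL; 0% = median of vehicle wells and 100% = median of positive control wells; one replicate is shown; the record names a cut of 25% in any replicate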
T cruzi repl: inhibitors of intracellular T. cruzi growth, primary screen, luminescence, NIH3T3 host cells. T. cruzi beta-gal in NIH3T3, 90 h. inhibition, % (test concentration not listed). 300,000 tested, 1.4% active. AID 1885, 2009;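 active means mean inhibition across valid replicates above about 55%, limit read from the data; inconclusive means mean below that limit but half or more replicates reach it; inactive means mean below it, under half of replicates reach it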;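 further: signal also drops with host cell toxicity which is not excluded here; 0% = plate median of DMSO wells and 100% = zero luminescence signal; higher percent means less beta-gal luminescence so fewer parasites; stock transfer was 50 nL into about 50 µL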
Bfl-1 A1 inh: caspase 3/7 activation in MEF A1-2A-BIM cells, primary screen, A1 inhibitor project, cell-based, luminescence, HTS; Caspase-Glo 3/7 luminescence, 3 h; percent of clofoctol response, vehicle zero; caspase activation, % (no concentration beside the values); 330,000 tested, 0.066% active; AID 2462, 2010;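 active means over half of replicate activation scores above 10%, or exactly half above 10 with the replicate mean above 10; inconclusive means replicate mean below 10 yet half the replicates above 10; inactive means over half of replicates below 10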;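 further: wells of about 30 µL received 50 nL stock; many hits fall short of the cut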
Calb FLC: C. albicans growth inhibition with fluconazole, primary screen, CaCi-2 strain, Alamar Blue fluorescence. C. albicans CaCi-2 (fluconazole-resistant clinical isolate) + fluconazole, 48 h. growth inhibition, % (test concentration not listed). 300,000 tested, 0.57% active;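 active means most replicates above 75%; inconclusive means exactly half above 75%; inactive means most below 75%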;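 further: all wells also contain fluconazole at 8 µg/ml as a sub-toxic cotreatment; 0% = median of DMSO wells and 100% = median of geldanamycin control wells; wells of about 8 µL received 7.5 nL stock; the first replicate is given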
rRNA inh HTS OD600: also measured in rRNA inh HTS; calls as there; OD600 change, %; measured here: OD600 growth;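 optical density of the mix in the first replicate; 0 = DMSO median and -100 = no signal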
rRNA inh HTS RFP: second read-out of rRNA inh HTS, no call of its own (marks repeat the call); RFP signal change, %; measured here: RFP humanized mutant strains;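 first replicate; 0 = DMSO median and -100 = no signal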
* marks the source's active call; other numbers are inactive results; ? = inconclusive; / = not tested or not shown; & = joins results of further samples. These rows are one share of the data. The share of hits here may be higher or lower than overall.

SMILES	rRNA inh HTS	rRNA inh HTS OD600	rRNA inh HTS RFP	ALR inh	B2AR ag	Beta cell apopt	LANA-H2A inh	T cruzi repl	Bfl-1 A1 inh	Calb FLC
CN(C)c1ccc(NC(=O)CSc2nc3c(c(=O)[nH]2)CCCC3)cc1	-7.9	12.5	13.9	96.2*	1.6	-5.3	1.3	4.9	1.7	-0.5
CCOC(=O)c1c(/N=C/C2=C(O)CC(C)(C)CC2=O)sc(C)c1C	/	/	/	6.1	-6.2	-0.1	3.3	-13.7	-0.3	1.7
Cc1cc(C)c(C(=O)COC(=O)c2c(C)noc2C)cc1C	0.3	-3.1	-1.4	-3.9	-9.5	1.1	-2.3	/	-1.1	/
COc1ccc(S(=O)(=O)N2CCN(C(=O)c3c(-c4ccccc4)noc3C)CC2)cc1	/	/	/	-17.7	-11.0	-1.3	-8.2	-4.0	1.2	3.5
Cc1cc(NC(=O)c2noc3c2CCCC3)no1	/	/	/	1.9	-9.3	-3.9	-1.1	-14.7	-0.4	?
C#CCOCCOCCOCCNc1nc(N2CCN(C(=O)Cn3cc(CCCCN)nn3)CC2)nc(N2CCN(C(=O)Cn3cc(CCCCN)nn3)CC2)n1	3.3	1.6	4.3	-21.4	2.1	3.0	-4.7	-28.2	-0.3	4.5
Cn1c(=O)n(C)c2cc(NC(=O)CSc3ccccc3)ccc21	0.6	-2.1	-0.7	-42.2	2.0	3.1	1.3	-2.5	0.1	-1.3
CC(=O)N1CCc2c(sc(NC(=O)Cc3ccc(F)cc3)c2C(N)=O)C1	4.8	5.7	-3.9	/	-0.3	-1.7	0.1	-5.0	-0.5	20.2
CCS(=O)(=O)C(=C(Nc1ccc(OC)cc1)Nc1ccc(OC)cc1)S(=O)(=O)CC	/	/	/	-8.1	0.3	-0.4	-2.0	5.5	-0.1	28.0
COC(=O)c1ccc(C2c3c(oc4ccc(Cl)cc4c3=O)C(=O)N2CCN2CCOCC2)cc1 (stereo not drawn)	6.3	-1.3	-3.5	0.1	-21.6	-3.3	-3.4	2.1	0.7	1.5
O=C(Nc1cccc2ccccc12)c1cc2c(cc1Br)OCO2	-12.3	-8.2	2.3	-21.9	-5.6	-4.8	-2.5	-8.9	-0.1	-4.0
COc1ccc(NC(=O)c2ccc(S(=O)(=O)N3CCCCCC3)cc2)c(OC)c1	3.9	-6.2	-2.3	-4.9	10.6	-1.9	-1.0	5.4	0.9	3.0

3 structures already listed, sorted by length of the SMILES, descending:
SMILES	rRNA inh HTS	rRNA inh HTS OD600	rRNA inh HTS RFP	ALR inh	B2AR ag	Beta cell apopt	LANA-H2A inh	T cruzi repl	Bfl-1 A1 inh	Calb FLC
COC(=O)c1ccc(C2c3c(oc4ccc(Cl)cc4c3=O)C(=O)N2CCN2CCOCC2)cc1 (stereo not drawn)	6.3	-1.3	-3.5	0.1	-21.6	-3.3	-3.4	2.1	0.7	1.5
CCS(=O)(=O)C(=C(Nc1ccc(OC)cc1)Nc1ccc(OC)cc1)S(=O)(=O)CC	/	/	/	-8.1	0.3	-0.4	-2.0	5.5	-0.1	28.0
Cn1c(=O)n(C)c2cc(NC(=O)CSc3ccccc3)ccc21	0.6	-2.1	-0.7	-42.2	2.0	3.1	1.3	-2.5	0.1	-1.3

Next part
SMILES	rRNA inh HTS	rRNA inh HTS OD600	rRNA inh HTS RFP	ALR inh	B2AR ag	Beta cell apopt	LANA-H2A inh	T cruzi repl	Bfl-1 A1 inh	Calb FLC
Nc1cc(=O)[nH]c(SCC(=O)Nc2ccc(N3CCOCC3)cc2)n1	0.2	13.0	4.9	2.6	-5.6	4.7	-1.6	/	0.0	/
CCOC(=O)C1=C(O)/C(=C/c2cc(OC)c(OC)c(OC)c2)N=C1C	/	/	/	-31.4	-4.0	4.8	1.9	0.5	0.0	-0.8
COC(=O)c1cn(CCOc2ccccc2)c2ccccc12	/	/	/	-4.1	1.1	-9.4	-1.9	34.5	-0.3	-11.2
COc1ccc(CNC(=O)CS(=O)Cc2nc(-c3ccccc3C)oc2C)cc1 (stereo not drawn)	-8.4	-16.6	2.9	99.2*	2.1	-5.2	-3.4	38.0	/	5.1
NC(=O)C1=C[C@H](c2ccccc2)C[C@H](OCc2ccc(CO)cc2)O1	3.4	-7.1	-7.9	/	0.4	-7.3	-1.3	14.6	1.6	-3.6
CSc1ccccc1NC(=O)CSc1nnc(Cc2ccccc2)o1	0.4	1.9	1.7	3.6	0.5	-2.0	3.4	-13.4	0.3	1.4
CCc1ccc(NC(=O)CCCN2C(=S)NC(C)(C)CC2C)cc1 (stereo not drawn)	/	/	/	1.8	1.8	-1.1	4.5	-3.9	0.1	-4.6
Cc1ccc(OCCNC(=O)Cc2ccc(S(=O)(=O)N3CCOCC3)s2)cc1	-5.9	-5.6	1.7	-10.3	5.9	-1.2	8.7	-2.4	-0.3	6.3
NS(=O)(=O)c1ccc(Cl)cc1[N+](=O)[O-]	-10.4	1.5	-3.0	-30.7	-6.5	-6.4	-1.7	7.7	-0.3	-3.3
Cc1ccc(-n2nnnc2SCC(=O)Nc2ncc(Cc3ccccc3Cl)s2)cc1	/	/	/	-2.7	-6.7	-3.0	-3.1	-4.2	0.1	-5.0
CC(C)NC(=O)N(C)C[C@@H]1Oc2c(NS(=O)(=O)c3ccccc3)cccc2C(=O)N([C@@H](C)CO)C[C@@H]1C	8.4&6.4	15.6&-1.7	-0.1&1.8	0.5	6.6	-0.8	5.6	/	-0.2	/
Cc1ccc(C(=O)NNC(=O)C2CCN(c3ncccn3)CC2)cc1	-1.8	-8.3	5.2	-1.4	0.3	0.3	-4.2	-11.4	0.3	-2.1
Cc1ccccc1NCC(=O)N/N=C\c1ccc2c(c1)OCO2	-6.1	-6.6	0.4	93.7*	6.1	-11.2	-0.7	-9.0	-0.1	-10.6
Cc1ccc(C)c(NC(=O)Cn2cc(C(=O)C3CC3)c3ccccc32)c1	2.7	16.2	0.2	-3.7	-2.3	-1.7	5.4	-13.7	-0.1	-6.4
C=C[C@]1(C)C=C2CC[C@H]3[C@@](C)(CCC[C@@]3(C)C(=O)O)[C@@H]2CC1	/	/	/	1.5	3.5	-4.0	2.8	/	1.0	/
CC1CC(C)CN(C(=O)Cn2nnc(-c3ccccc3)n2)C1 (stereo not drawn)	1.3	5.7	0.7	-6.0	-6.9	-7.6	1.5	-9.8	-0.1	-9.9
Cc1nc2cc(NC(=O)Nc3nccs3)ccc2n1C	/	/	/	6.9	1.6	/	-0.4	-14.2	-6.1	5.6
O=S(=O)(c1ccccc1)c1nc(-c2ccccc2Cl)oc1NCCN1CCOCC1	/	/	/	-14.2	3.5	-0.1	-12.9	15.9	0.5	-2.0
COc1ccc(CN2C(=O)C(Cc3ccccc3)Nc3ncnc(N4CCc5ccccc5C4)c32)cc1 (stereo not drawn)	/	/	/	3.8	/	/	-4.5	36.8	-1.0	22.4
CC[C@]12c3[nH]c4ccccc4c3CCN1C(=O)C(CC(=O)NCc1cccc(C(F)(F)F)c1)C[C@@H]2C(=O)N1CCN(C(=O)C2CC2)CC1 (stereo partly drawn)	-9.9	-6.5	4.3	/	-0.5	-5.2	0.1	/	-0.7	/
Cc1nn(-c2ccccc2)c(Cl)c1C(=O)Nc1nnc(C2CCCC2)s1	/	/	/	1.0	-3.2	0.8	-3.4	8.5	1.1	12.7
CC(C)(C)NC(=O)COC(=O)c1ccccc1Oc1ccccc1	-2.7	3.3	1.6	6.7	0.6	-6.8	-1.2	2.6	0.3	-1.6
COc1ccc(NS(=O)(=O)c2ccc(N3CCOCC3)c(NC(=O)c3ccc(F)cc3)c2)cc1	-2.8	3.7	6.2	-5.7	-0.4	7.9	0.1	-33.2	0.4	12.6
COCc1c(C(=O)OCC(=O)c2c(N)n(CC(C)C)c(=O)n(C)c2=O)oc2ccccc12	/	/	/	-8.2	8.7	/	0.0	22.6	0.5	12.4
Brc1ccccc1/C=N/Nc1ccc2ccccc2n1	-41.5	-49.3	-7.3	/	5.9	0.1	2.9	48.0	0.1	-8.6
CC(C)(C)NC(=O)CN(C(=O)CCC(=O)Nc1nccs1)c1ccc(F)c(Cl)c1	3.1	-1.7	-4.1	-0.1	1.3	4.5	0.4	-12.5	-0.1	-3.6
CCOC(=O)c1c(N)sc(N)c1C(=O)OCC	/	/	/	22.2	3.6	-1.9	0.1	1.4	0.0	-23.3
Cc1cccc(/C=N/NC(=O)c2cc(-c3cccnc3)nc3c2c(C)nn3-c2ccccc2)c1	/	/	/	-4.6	103.4*	-2.3	-6.9	26.9	-0.9	12.4
COc1cccc(C(=O)N/N=C/c2ccc(Oc3ccc([N+](=O)[O-])cn3)c(OC)c2)c1	2.3	6.2	1.3	-1.6	-146.4	3.8	3.2	-13.1	0.3	23.4
CCN(CC)CCCNS(=O)(=O)c1ccc(OC)cc1	/	/	/	-3.1	7.8	0.4	2.5	0.9	1.4	8.9
CC(=O)N1CCN(C(=O)C(Cc2ccccc2)NC(=O)c2ccccc2)CC1 (stereo not drawn)	/	/	/	/	8.7	-2.4	4.6	/	0.5	/
CC(=O)c1c(C(C)=O)c(C)n(Cc2ccccc2)c1C	/	/	/	4.0	-7.2	-4.0	4.0	-20.1	0.3	-8.4
NC(=O)Nc1ccc(C(=O)OCC(=O)NCc2ccc3c(c2)OCO3)cc1	6.9	6.8	3.3	-1.0	8.7	0.9	0.3	/	-1.3	/
COc1cc2c(cc1OC)C(C(=O)NCc1ccco1)C1c3ccccc3CCN1C2=O (stereo not drawn)	/	/	/	-6.6	-0.3	-2.6	-0.5	7.3	0.4	40.6
CCOc1ccc(NC(=O)c2cccc3c2C(=O)N(CC2CCCO2)C3)cc1 (stereo not drawn)	-1.3	2.2	-6.5	7.4	-5.3	-6.4	-0.5	9.7	/	5.8
CNC(=S)N1N=C(c2ccccc2)CC1c1ccc(OC)c(OC)c1 (stereo not drawn)	/	/	/	-5.5	-0.4	-18.3	-4.2	-4.8	0.1	9.1
CCCCSc1nnc(-c2ccc(NC(=O)CCc3ccccc3)cc2)n1C	/	/	/	-2.8	-1.4	1.5	1.1	10.6	0.8	-0.8
COc1cc(C2C(C#N)=C(N)Oc3cc(C)n(CCc4ccccc4)c(=O)c32)cc2c1OCO2 (stereo not drawn)	/	/	/	22.4	16.8	-2.2	-3.1	14.8	0.7	1.4
COc1ccc(CN2CCN(C(=O)CC(C)C)CC2)cc1OC	/	/	/	9.0	0.6	0.7	0.7	-1.5	-0.3	-6.4
O=C(NCc1ccccc1)c1ccc(NC2=NC3CS(=O)(=O)CC3S2)cc1 (stereo not drawn)	/	/	/	-1.5	9.3	-1.7	2.2	-5.7	0.6	-15.6

Screening results: PubChem, several laboratories
